Screening data (PubChem BioAssay)
PABP polyA inh – blocks human PABP binding to poly(A) RNA; fluorescence polarization; AID 2014; P11940; inhibition, % at 35 µM; 1% of 290,000 active;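 active means 50% or more with normal probe brightness, or confirmed in later tests; about a fifth of its hits are not listed in these tables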;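 further: calls also rest on retests at 20 µM and on dose response follow-up; controls were probe without protein and protein plus probe with vehicle; some compounds called inactive have numbers as strong as hits; many hits fall short of the cut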
HIV Env fusion – inhibitors of HIV Env-mediated cell fusion; HeLa-JRFL Env/CEM21 cell fusion, luciferase; inhibition, % at 12.3 µM; 1.1% of 360,000 active;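 active means mean replicate inhibition score of at least 50 and every replicate individually at or above 50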;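 further: 0% = plate neutral controls and 100% = maraviroc near 300 nM; one replicate is shown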
MT1-MMP act inh – MT1-MMP (human) activation inhibition | AID 651647 | GFP/RFP ratio change, % at 20 µM | HT1080 RFP-PRO-GFP cells, GFP/RFP ratio fluorescence, overnight; percent of plate control window, DMSO zero | 0.061% of 360,000 active;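 active means GFP/RFP ratio change of at least 30% with cell ATP level not reduced by more than half and red fluorescence within 50% of control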; further: strong numbers were not always called active
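Assay system – RFP-PRO-GFP reporter HT1080 cells · Compound dosing – single dose of 20 µM compound, 1% DMSO final · Incubation – overnight compound exposure at 37 °C · Measure – GFP/RFP fluorescence ratio · Benchmarks – DMSO wells and RFP-L50D-GFP cells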
Rce1 inh – inhibitors of yeast Ras-converting enzyme; Q03530; yeast membranes, quenched prenylated peptide cleavage fluorescence; calls only; 0.27% of 290,000 active;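 active means fall in fluorescence gain of 50% or more versus controls, with final raw signal at or below 3038400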;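 further: plate controls were neutral control wells for no effect and wells lacking membranes for full effect; tested at 10 µM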
Target sequence (Q03530 whole entry, looked up): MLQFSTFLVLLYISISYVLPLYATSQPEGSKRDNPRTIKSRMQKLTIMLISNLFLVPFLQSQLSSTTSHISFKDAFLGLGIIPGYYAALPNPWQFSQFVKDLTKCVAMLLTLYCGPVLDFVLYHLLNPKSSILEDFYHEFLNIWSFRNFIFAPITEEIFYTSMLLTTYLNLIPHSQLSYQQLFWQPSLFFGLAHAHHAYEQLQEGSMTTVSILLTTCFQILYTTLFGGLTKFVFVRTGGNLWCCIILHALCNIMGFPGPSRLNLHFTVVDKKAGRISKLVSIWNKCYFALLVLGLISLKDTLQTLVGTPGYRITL
Yeast UUG start – alters start codon recognition fidelity in yeast; S. cerevisiae UUG-firefly luciferase reporter, luminescence/redox ratio; activity score, % at 18.7 µM; 0.13% of 350,000 active;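 active means replicate mean at a twofold rise or more, about +100% in these data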;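 further: firefly luciferase made from a UUG start codon reports start codon fidelity; reporter light over untreated wells divided by growth signal over untreated wells; some hits fall short of that in this replicate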
CSC inhib – cancer stem cell inhibition. cancer stem cell-like cells viability, luminescence. inhibition, % at 7.5 µM. 1.1% of 300,000 active. AID 2717;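 active means mean at 75% or more and at least half the replicates too; tested in HMLE shEcad cells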;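 further: 0% = median of negative and 100% = median of positive control wells; the first replicate is given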
eIF4H FP inh – inhibitors of RNA binding by human eIF4H | Q15056 | inhibition, % at 35 µM | eIF4H fluorescence polarization binding assay | 0.94% of 290,000 active | AID 2012;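 active means 50% or more with normal probe brightness, or confirmed in later tests; about a fifth of its hits are not listed in these tables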;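 further: calls also rest on retests at 20 µM and on dose response follow-up; 0% = protein and probe with vehicle and 100% = probe without protein; strong numbers were not always called active; many hits fall short of the cut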
MT1-MMP act inh RFP – recorded beside MT1-MMP act inh, whose call it bears; RFP signal change, %; measured here: RFP expression control read;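 0 = vehicle wells; hits needed this value within 50% of zero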
* marks the source's active call; other numbers are inactive results; i = inactive; / = no result given; + = active, no number. Compounds were not picked by outcome; 2.9% or so of the library scored in one or more.

1. COc1ccc(N2CCN(S(=O)(=O)CCNC(=O)/C=C/c3ccc4c(c3)OCO4)CC2)cc1
2. Cc1cc(=O)oc2cc(OCC3CC(c4ccc(Cl)cc4)=NO3)ccc12 (centres undefined)
3. O=C(CSc1nnc(COc2cccc3cccnc23)o1)c1ccc(F)cc1
4. COc1ccc(Cn2c(-c3ccc(OC)cc3)nc3ccccc32)cc1
5. CN(C)CCN(C(=O)c1ccc2c(c1)CCCC2)c1nc2c(F)cccc2s1

entry no.,1,2,3,4,5
PABP polyA inh,/,-9,-1,5,-14
HIV Env fusion,-4,-43,/,/,10
MT1-MMP act inh,6,5,-11,10,-4
MT1-MMP act inh RFP,-4,1,-2,2,2
Rce1 inh,i,i,i,i,i
Yeast UUG start,-17,-9,-9,/,-2
CSC inhib,-18,37,7,5,-1
eIF4H FP inh,/,6,0,-5,-3

6. CC1CCN(C(=O)Cn2cc(C#N)c3ccccc32)CC1
7. COC(C[C@@H](O)C[C@H](O)[C@@H](C)OCc1ccccc1)OC
8. CCCOC(=O)c1ccc(S(N)(=O)=O)o1
9. Cc1ccc(NS(=O)(=O)c2cccc(C(=O)N3CCCCCCC3)c2)cc1
10. O=C1CC(c2ccccc2)Cc2nc(NC3CC3)ncc21 (centres undefined)

entry no.,6,7,8,9,10
PABP polyA inh,-8,-8,-9,/,10
HIV Env fusion,/,3,30,-3,-9
MT1-MMP act inh,0,2,3,0,2
MT1-MMP act inh RFP,-2,6,9,-6,-1
Rce1 inh,i,i,i,i,i
Yeast UUG start,-8,-12,-23,/,/
CSC inhib,/,/,-12,-12,-15
eIF4H FP inh,-10,12,-2,/,0

11. O=NN(CC(=O)NN=CC=Cc1ccccc1)CC(=O)NN=CC=Cc1ccccc1
12. Cc1ccc(CCNC(=O)C2CCN(S(=O)(=O)c3ccc4c(c3)NC(=O)CO4)CC2)cc1
13. CC1=C(C(=O)N2CCOCC2)CC(CC(=O)NCc2cccc3ccccc23)C(=O)N1Cc1ccc(F)cc1 (centres undefined)
14. CC(C)CNC(=O)C(=O)NCc1ccccn1
15. CC(=O)Nc1ccc(S(=O)(=O)NCCC(=O)OCC(=O)c2ccc(F)c(F)c2)cc1

entry no.,11,12,13,14,15
PABP polyA inh,/,0,/,8,5
HIV Env fusion,-81,-4,-5,3,5
MT1-MMP act inh,5,-6,3,0,-8
MT1-MMP act inh RFP,5,-7,-4,1,-2
Rce1 inh,/,i,/,i,i
Yeast UUG start,-8,-9,-8,/,1
CSC inhib,/,-5,/,-7,-7
eIF4H FP inh,/,2,/,0,3

16. CCOc1ccc(C(=O)NCc2cccnc2)cc1[N+](=O)[O-]
17. COc1cc2c(cc1OC)C(c1cccs1)N(C(=O)c1ccncc1)CC2 (centres undefined)
18. CCCCc1nc(Cl)c(C#N)c2c1CSC(C)(C)C2
19. Clc1ccc(-c2cc(C3CCNCC3)[nH]n2)c(Cl)c1
20. Cc1oc2c(c1C(=O)NCCO)CCCC2

entry no.,16,17,18,19,20
PABP polyA inh,-8,-2,2,0,5
HIV Env fusion,4,13,6,2,/
MT1-MMP act inh,1,0,0,-5,3
MT1-MMP act inh RFP,-1,3,-3,0,8
Rce1 inh,i,i,i,i,i
Yeast UUG start,/,/,/,/,0
CSC inhib,0,16,41,/,-10
eIF4H FP inh,-1,-1,4,-10,8

Molecules from the list above containing a furan ring, fused or not, in the order listed:
8. CCCOC(=O)c1ccc(S(N)(=O)=O)o1
20. Cc1oc2c(c1C(=O)NCCO)CCCC2

entry no.,8,20
PABP polyA inh,-9,5
HIV Env fusion,30,/
MT1-MMP act inh,3,3
MT1-MMP act inh RFP,9,8
Rce1 inh,i,i
Yeast UUG start,-23,0
CSC inhib,-12,-10
eIF4H FP inh,-2,8

Just MT1-MMP act inh, HIV Env fusion and PABP polyA inh, for some of the entries so far:
| No. | smiles | MT1-MMP act inh | HIV Env fusion | PABP polyA inh |
| --- | --- | --- | --- | --- |
| 16 | CCOc1ccc(C(=O)NCc2cccnc2)cc1[N+](=O)[O-] | 1 | 4 | -8 |
| 20 | Cc1oc2c(c1C(=O)NCCO)CCCC2 | 3 | / | 5 |

More records follow:
21. Cc1ccc(NC(=O)CNc2cccc(S(=O)(=O)N3CCCCC3)c2)cc1F
22. O=C(Cc1ccccc1)NNC1CC(=O)N(c2ccccc2)C1=O (centres undefined)
23. COc1cc(OC)cc(C(=O)NC(=S)N2CCCCC2c2cccnc2)c1 (centres undefined)
24. O=c1[nH]c(/C=C\c2cccc(F)c2)nc(O)c1[N+](=O)[O-]
25. CC(=O)Nc1ccc(NC(=O)Cn2cnc3c(cnn3C(C)(C)C)c2=O)cc1

entry no.,21,22,23,24,25
PABP polyA inh,/,0,11,13,6
HIV Env fusion,26,-13,/,15,/
MT1-MMP act inh,-3,4,3,4,/
MT1-MMP act inh RFP,-11,1,5,5,/
Rce1 inh,i,i,i,i,i
Yeast UUG start,/,/,-19,-4,/
CSC inhib,-6,-21,-8,-17,-2
eIF4H FP inh,/,2,0,0,6

26. COc1ccc(N(C)S(=O)(=O)c2cccc(C(=O)Nc3cc(OC)ccc3OC)c2)cc1
27. Cc1cc(C)c(C(=O)O)c(Cl)n1
28. Cc1oc(-c2ccccc2F)nc1CSCC(=O)NC1CCC(C)CC1 (centres undefined)
29. COc1cccc(OCc2cc(/C=N/n3cncn3)ccc2OC)c1
30. COc1cc(NS(C)(=O)=O)cc(OC)c1OC

entry no.,26,27,28,29,30
PABP polyA inh,0,1,-4,-10,-1
HIV Env fusion,7,-12,7,6,7
MT1-MMP act inh,-1,5,5,4,-1
MT1-MMP act inh RFP,-7,9,-10,-6,-1
Rce1 inh,i,i,i,i,i
Yeast UUG start,/,/,/,-21,-18
CSC inhib,13,-16,-3,3,14
eIF4H FP inh,-12,3,-12,-15,-3

31. C/C(=N\NC(=O)CCc1c(C)n[nH]c1C)c1ccc([N+](=O)[O-])cc1
32. COC(=O)c1ccc(NC(=O)C(C)N2C(=O)c3ccccc3C2=O)cc1 (centres undefined)
33. C=CCN1C(=O)CSc2ccc(C(=O)NC(C)c3ccccc3)cc21 (centres undefined)
34. CCN1CCN(CCCNC(=O)CN2C(=O)c3cccnc3Oc3ccc(Cl)cc32)CC1
35. O=C(Oc1ccc(=O)n(-c2ccccc2)n1)c1cccc(Cl)c1

entry no.,31,32,33,34,35
PABP polyA inh,6,-15,-1,-10,4
HIV Env fusion,-3,-10,4,8,/
MT1-MMP act inh,1,5,2,-3,5
MT1-MMP act inh RFP,4,1,1,4,2
Rce1 inh,i,i,i,i,i
Yeast UUG start,-23,1,-1,-14,-8
CSC inhib,-12,3,-5,8,/
eIF4H FP inh,4,-6,-11,-6,4

36. O=C(NCC1CCCO1)C1CCCN(S(=O)(=O)c2ccc(F)cc2)C1 (centres undefined)
37. C=CCN(c1ccccc1OC)S(=O)(=O)c1ccc(Cl)c(C(=O)Nc2ccc(N3CCOCC3)cc2)c1
38. CCC(C)[C@H](NC(=O)C1CC(=O)N(c2ccc(OC)cc2)C1)C(=O)N1CCCCC1 (some centres undefined)
39. Cc1cc(NC(=O)CSc2nnc(NCc3ccccc3)s2)no1
40. COc1cccc(NCc2nnc(SCC(=O)NC3CCS(=O)(=O)C3)n2C2CCCCC2)c1 (centres undefined)

entry no.,36,37,38,39,40
PABP polyA inh,12,-14,8,12,/
HIV Env fusion,-4,44,7,1,5
MT1-MMP act inh,-4,-7,4,1,-1
MT1-MMP act inh RFP,-1,-6,-2,-1,2
Rce1 inh,i,i,i,i,i
Yeast UUG start,-9,/,0,-4,-17
CSC inhib,-8,5,-4,-8,6
eIF4H FP inh,-4,-15,6,-8,/

41. Cc1cccc2cc(CN(CC3CCCO3)S(=O)(=O)c3ccccc3)c(=O)[nH]c12 (centres undefined)
42. O=C(NCc1ccc(F)cc1)C1CCCN1C(=O)Nc1ccc(Cl)cc1 (centres undefined)
43. O=C(C[n+]1cccc(/C=N/O)c1)N(Cc1ccccc1)Cc1ccccc1
44. CCOc1ccc2nc(-c3ccccc3)nc(SCC(=O)Nc3ncc(C)s3)c2c1
45. NS(=O)(=O)c1ccc(CCNC(=O)c2ccc3ccccc3n2)cc1

entry no.,41,42,43,44,45
PABP polyA inh,-10,16,4,-7,6
HIV Env fusion,7,10,22,-20,-9
MT1-MMP act inh,2,5,4,0,-1
MT1-MMP act inh RFP,1,4,4,-2,3
Rce1 inh,i,i,i,i,+
Yeast UUG start,1,/,/,-12,/
CSC inhib,2,-2,5,-6,-4
eIF4H FP inh,-7,12,-11,-4,8

46. CCN(CC)C(=O)CN(C#N)c1nc(C)cc(C)n1
47. CCOc1cc(/C=C(/C#N)c2nc3ccccc3[nH]2)ccc1OCc1ccc(C(=O)O)o1
48. N#Cc1ccc(CSc2nnc(NC(=O)C3CCCO3)s2)cc1 (centres undefined)
49. Cc1cccc(NC(=O)CN2C(=O)S/C(=C\c3cc(C)n(C)c3C)C2=O)c1
50. CCc1ccc2c(c1)cc(C)c1nnc(SCC(=O)Nc3cc(OC)c(OC)cc3C(=O)O)n12

entry no.,46,47,48,49,50
PABP polyA inh,8,15,-3,-5,11
HIV Env fusion,7,-38,-3,-13,-5
MT1-MMP act inh,3,-13,0,-3,1
MT1-MMP act inh RFP,6,3,1,1,2
Rce1 inh,i,i,i,i,i
Yeast UUG start,-17,2,-21,-11,/
CSC inhib,-10,-6,7,0,8
eIF4H FP inh,-10,13,5,12,4

51. O=C1c2ccccc2C(=O)N1CCC#C/C=C1\c2ccccc2C(=O)N1c1ccccc1
52. CCOC(=O)c1ccc(NC(=O)c2nc[nH]c2C(=O)N2CCN(C(=O)OC(C)(C)C)CC2)cc1
53. CC(=O)Nc1ccc(S(=O)(=O)N(C)CC(=O)NC2CCCCCCC2)cc1
54. COc1ccc(OC)c(NC(=O)c2nnn(CC(=O)Nc3ccc4c(c3)OCO4)c2N)c1
55. CC(C)S(=O)(=O)c1cnc(-c2ccccn2)nc1N

entry no.,51,52,53,54,55
PABP polyA inh,/,2,/,-2,7
HIV Env fusion,-2,-87,3,/,8
MT1-MMP act inh,0,/,5,-4,0
MT1-MMP act inh RFP,-1,/,2,-8,4
Rce1 inh,/,i,/,i,i
Yeast UUG start,-19,/,-13,-1,/
CSC inhib,/,/,-11,-3,-13
eIF4H FP inh,/,1,/,48,3

Values by screen from the list:
CSC inhib for nos. 51–55: /, /, -11, -3, -13
MT1-MMP act inh RFP for nos. 51–55: -1, /, 2, -8, 4
PABP polyA inh for nos. 51–55: /, 2, /, -2, 7

(further entries)
56. CC(C(=O)Nc1ccc(Cl)cc1)N1C(=O)NC2(CCCC2)C1=O (centres undefined)
57. CCSc1nnc(Cc2cc(=O)[nH]c(=O)[nH]2)n1-c1cc(C)ccc1C
58. CCCCc1c(O)nc(N2CCN(Cc3ccccc3)CC2)[nH]c1=O
59. CCN1C(=O)/C(=C\c2cn(CCC#N)nc2-c2ccc(F)cc2)SC1=S
60. N#Cc1cc(Oc2cccnc2)c(Oc2cccnc2)cc1C#N

entry no.,56,57,58,59,60
PABP polyA inh,-10,-4,-2,1,14
HIV Env fusion,23,-35,3,16,-44
MT1-MMP act inh,-1,-1,1,1,-5
MT1-MMP act inh RFP,4,4,0,3,4
Rce1 inh,i,i,i,i,i
Yeast UUG start,-4,/,-17,/,-10
CSC inhib,9,-13,-9,6,-17
eIF4H FP inh,-5,1,-6,16,22

61. Cc1ccc(S(=O)(=O)Nc2ccc(N3CCN(C)CC3)nc2)cc1
62. C=C(C)COc1ccc2c(C)c(CC(=O)N3C[C@H]4C[C@@H](C3)c3cccc(=O)n3C4)c(=O)oc2c1C
63. C=CCOc1ccc(/C=C/C(=O)OCC(=O)NCCCc2ccccc2)cc1
64. CN(C)/C=C(\C#N)S(=O)(=O)c1ccc(Cl)cc1
65. Cc1cc(C)n(-c2nc(-c3ccccc3)cs2)n1

entry no.,61,62,63,64,65
PABP polyA inh,-5,0,/,-1,0
HIV Env fusion,0,/,-1,19,/
MT1-MMP act inh,-6,3,-1,0,6
MT1-MMP act inh RFP,3,4,1,1,19
Rce1 inh,i,i,i,i,i
Yeast UUG start,-6,6,-18,6,-10
CSC inhib,20,-11,-2,-6,-16
eIF4H FP inh,43,0,/,0,0
